Screening results as filed in PubChem BioAssay.
Biofilm kill mix: mixtures killing C. albicans biofilm; inhibition, % at 7.6 µM; hit rate 0.02% among 120,000; C. albicans biofilm persisters + clotrimazole, fluorescence viability; primary screen in compound mixtures of four per well;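 active means inhibition above 30.3% in the primary screen of four-compound pools, then above 30% when the compound was retested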;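 further: compounds exposed to preformed 24 h biofilms for 48 h; the number belongs to the whole pool; some results filed as inactive read as strong as hits; inactives centre near 12; 0% = biofilm with clotrimazole alone and 100% = kill control; retested singly at about 60 µM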
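Test system: C. albicans CAF4-2 wild-type biofilms; buffer or medium: RPMI/MOPS medium, pH 7.0; schedule: 24 h biofilm formation, then 48 h compound exposure, 37 °C; detection: Alamar Blue fluorescence; measure: percent inhibition of biofilm viability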
Active calls of the source: *. A portion of the library. The share of hits here may be higher or lower than overall.

no.	SMILES	Biofilm kill mix
1	O=C(COC(=O)c1nn(-c2ccccc2)c(=O)c2ccccc12)NC1CCS(=O)(=O)C1 (centres undefined)	10
2	CCN1CCN(C(c2cccs2)C(C)NC(=S)Nc2cc(C)ccc2C)CC1 (centres undefined)	15
3	COc1ccc(CCC(=O)Nc2ccc(C)c(S(=O)(=O)N(C)C)c2)cc1OC	18
4	NC(=O)C1=C[C@@H](c2coc3ccccc3c2=O)C[C@@H](OCc2ccc(CO)cc2)O1	13
5	COc1ccc(OCC(=O)Nc2cc3oc4ccccc4c3cc2OC)cc1	22
6	CSc1nc(C)c2c(n1)N(c1ccc(O)cc1)CC2	7
7	O=C(COC(=O)Cc1c(F)cccc1Cl)NCCC1=CCCCC1	18
8	O=S(=O)(Nc1ccc(Cl)cn1)c1ccccc1	16
9	COC(=O)c1ccccc1NC(=O)NCc1ccncc1	-10
10	COc1ccc(OCCSc2nc(C)c(Cc3ccccc3)c(=O)[nH]2)cc1	10
11	Cc1occc1-c1n[nH]c(=S)n1C	13
12	CC(=O)Nc1ccc(C(=O)OCc2ccc(Br)cc2)cc1	10
13	CC(C)c1ccc(CN(C(=O)/C=C/c2ccco2)C2CCS(=O)(=O)C2)cc1 (centres undefined)	16
14	O=C(CSc1nnc(-c2cccs2)o1)OCc1ccccc1	7
15	CCSc1nnc(NC(=O)Cn2cnc3ccccc3c2=O)s1	13
16	CC(=O)OCC(=O)[C@@]1(OC(C)=O)[C@@H](C)C[C@H]2[C@@H]3C[C@H](F)C4=CC(=O)C=C[C@]4(C)[C@@]3(F)[C@@H](O)C[C@@]21C	11
17	Cc1ccc(NCC(=O)N/N=C/c2ccncc2)cc1	15
18	COCCN(CCOC)S(=O)(=O)c1ccc(/C(O)=C(\C#N)c2nc3ccccc3[nH]2)cc1	4
19	Cc1nnc(N(C)C(=O)c2cnccn2)s1	21
20	COc1ccc([N+](=O)[O-])cc1CSc1nnc(NC(C)=O)s1	20
21	O=C(CCCn1c(=O)[nH]c2ccsc2c1=O)N1CCN(Cc2ccc3c(c2)OCO3)CC1	21
22	O=C(Nc1cc(=O)[nH]c2ncnn12)c1ccco1	25
23	Nc1nonc1OCCN1CCN(c2ccc([N+](=O)[O-])c3cccnc23)CC1	32
24	CCN(CC)c1ccc([C@H]2[C@@H]3CCCC[C@]3(O)CCN2CC(=O)NCc2ccco2)cc1	18
25	CC(C)(C)NC(=O)C(=O)NCCC1=CCCCC1	9
26	COc1ccc(NS(=O)(=O)c2ccc(NC(=S)NC(=O)/C=C/c3ccccc3)cc2)nn1	2
27	CC(C)(C)NC(=O)C1CCN(c2ccc(S(=O)(=O)N3CCOCC3)cc2Cl)CC1	-11
28	CCC(=O)Nc1sc(C(=O)Nc2ccccc2OC)c(C)c1C(=O)OC	22
29	CC(=O)Nc1ccccc1C(=O)C(=O)NCCc1ccccc1	7
30	Cc1ccc(-c2noc(-c3cc(C(C)(C)C)nn3Cc3ccccc3)n2)cc1	6
31	O=C1/C(=C/c2cccs2)SC(=S)N1N1CCOCC1	21
32	Fc1cccc(CN2CCCCCCC2)c1	7
33	CC(=O)c1cnc2c(-c3ccccc3)c(C(F)(F)F)nn2c1C	-5
34	O=C(Cc1c(Cl)cccc1Cl)OCC(=O)N1CCc2ccccc2C1	17
35	Cc1cccc(C)c1NC(=S)N(CCCN1CCOCC1)Cc1cccnc1	16
36	CC(C)C(=O)Nc1ccc(NC(=O)c2ccc([N+](=O)[O-])cc2Cl)cc1	15
37	Cn1nccc1NC(=O)CC(CC(=O)O)c1ccccc1 (centres undefined)	6
38	CC(C)C(=O)Nc1nc2c(c(=O)[nH]1)CCCC2	9
39	COCC(=O)N1CCCC(CNS(=O)(=O)c2ccc(OC)cc2)C1 (centres undefined)	5
40	Cc1c(Cl)cccc1NC(=O)C1CCCCC1	16
41	O=C(COC(=O)c1cccc2ccccc12)NCCCc1ccccc1	8
42	COc1ccc(/C=N/NC(=O)C2COc3ccccc3O2)cc1OC (centres undefined)	-9
43	NC(=O)c1ccsc1NC(=O)COC(=O)C1CC2CCCC(C1)C2=O (centres undefined)	20
44	COc1ccc(CCN(C)C(=O)/C=C/c2c(Cl)nc3ccccn23)cc1OC	-2
45	C/C(=C\c1ccccc1)CN1CCN(Cc2ccc(C)o2)C(CCO)C1 (centres undefined)	24
46	COc1cc(CN2CCN(Cc3ccc(C)cc3)C(CCO)C2)ccc1O (centres undefined)	11
47	CC(C)(C)OC(=O)N/N=C\c1ccc([N+](=O)[O-])s1	10
48	O=C(NCc1ccccn1)c1nc(-c2cccs2)no1	0
49	COc1cc(OC)c([N+](=O)[O-])cc1/C=N/NC(=O)c1ccncc1	18
50	O=C1CN(S(=O)(=O)c2ccccc2C(F)(F)F)CCN1	3

Continuation.
no.	SMILES	Biofilm kill mix
51	COc1ccc(N)c2c1OCCC2=O	11
52	Cc1ccc(-n2cc3ccc([N+](=O)[O-])cc3n2)cc1	3
53	Clc1ccc(-c2noc(CN3CCOCC3)n2)cc1	8
54	O=C(NN1CCOCC1)c1sc2cccc(F)c2c1Cl	20
55	COc1ccc2c(-c3ccccc3)cc(SCC(=O)NC3CCS(=O)(=O)C3)nc2c1 (centres undefined)	7
56	CCc1ccc(C(=O)/C=C/Nc2ccc(S(=O)(=O)Nc3cnc4ccccc4n3)cc2)cc1	7
57	CC(C)NC(=O)/C(C#N)=C/c1ccc2c(c1)OCCO2	8
58	Cc1ccc(Sc2ncccc2/C=N/O)cc1	9
59	COc1cc(C(=O)NC(c2ccccc2)c2ccccc2)cc(Cl)c1OC	5
60	Cc1nnc(SCC(=O)NC2CCCCC2C)s1 (centres undefined)	29
61	CCOC(=O)C1=C(O)/C(=C\c2ccc(O)c(OCC)c2)N=C1C	8
62	CN1CCN(C(=S)C(=O)Nc2ccc(Br)cc2)CC1	12
63	CCCc1nn(C)c(C(=O)Nc2ccc(C(C)(C)C)cc2)c1Cl	18
64	C/C(=N\NC(=O)c1ccc(O)cc1)c1ccc(N2CCOCC2)cc1	3
65	CC(C)NCCCCOc1cccc(Br)c1	13
66	Cc1ccc(C(=O)NC(C)c2nc3ccccc3n2CC(=O)Nc2c(C)cc(C)cc2C)cc1 (centres undefined)	19
67	O=C(CCCN1C(=O)/C(=C/c2ccco2)SC1=S)Nc1ccccc1C(=O)O	11
68	CC(=O)c1sc(-c2ccc(Cl)cc2)cc1N	23
69	CC(C)(CO)NCC#Cc1ccccc1	16
70	CC(C)(C)c1ccc(-c2n[nH]c(=S)n2CCCN2CCOCC2)cc1	11
71	CCOc1cc(CNc2ccc(N3CCOCC3)cc2)cc(Br)c1OCC	14
72	Cc1ccc2nc(NCC(N)=O)nc(-c3ccccc3)c2c1	-1
73	CC(C(=O)OCC(=O)c1ccccc1)N1C(=O)C2C3CCC(C3)C2C1=O (centres undefined)	5
74	O=C(Nc1ccccc1N1CCOCC1)C1CCN(S(=O)(=O)c2ccc(F)cc2)CC1	-2
75	CC(C)c1ccc(-c2cc(C(=O)NN3CCN(C)CC3)c3ccccc3n2)cc1	-13

Screen by screen, from the results shown:
Biofilm kill mix, nos. 29–37, in order: 7, 6, 21, 7, -5, 17, 16, 15, 6

Individual results from the results shown.
In Biofilm kill mix, entry 62 is entered as 12
In Biofilm kill mix, entry 69 is entered as 16
In Biofilm kill mix, entry 67 is entered as 11
In Biofilm kill mix, entry 61 is entered as 8
In Biofilm kill mix, entry 59 is entered as 5

Back to the main list, starting 3 compounds before the break.
no.	SMILES	Biofilm kill mix
73	CC(C(=O)OCC(=O)c1ccccc1)N1C(=O)C2C3CCC(C3)C2C1=O (centres undefined)	5
74	O=C(Nc1ccccc1N1CCOCC1)C1CCN(S(=O)(=O)c2ccc(F)cc2)CC1	-2
75	CC(C)c1ccc(-c2cc(C(=O)NN3CCN(C)CC3)c3ccccc3n2)cc1	-13
76	CCOC(=O)C1CCN(CCC(=O)Nc2ccc(C)c(C)c2)CC1	5
77	CC(C)CC(=O)NC(=S)Nc1cc(C(=O)O)ccc1Cl	16
78	NS(=O)(=O)c1ccc(NC(=O)/C=C/c2ccco2)cc1	10
79	CCC1CSC(Nc2ccc(C(=O)/C=C/c3ccc(Oc4ccccc4)cc3)cc2)=N1 (centres undefined)	13
80	CC1CCN(CCC(=O)Nc2ccccc2)CC1	-5
81	O=C1NC(=O)/C(=C\c2ccsc2)N1	-3
82	O=S(=O)(c1ccccc1)N1CCC(O)(CSc2ccc(F)cc2)CC1	11
83	O=C(/C=C/c1ccccc1[N+](=O)[O-])c1ccccc1Br	12
84	COc1ccccc1CNC(=O)c1ccc(C)s1	11
85	O=C(COC(=O)c1ccccc1Cc1ccccc1)Nc1ccc(SC(F)F)cc1	10
86	O=C(N/N=C/c1ccc(OC(F)F)cc1)c1ccc(Br)cc1	7
87	OCC1CCCN(C(=S)Nc2ccc(Nc3ccccc3)cc2)C1 (centres undefined)	20
88	COCCCNCCOc1ccc(C)cc1[N+](=O)[O-]	1
89	CCOC(=O)C1=C(N)OC2=C(C(=O)CC(C)(C)C2)C1c1ccccc1OC (centres undefined)	18
90	COc1cc(OC)cc(C(=O)NCC(=O)OCC(=O)N2CCc3ccccc32)c1	19
91	CNc1ccc(Br)cc(C(=O)/C=C/c2cccc(OC)c2)c1=O	6
92	COc1ccc(CN=C2NN=C(c3ccc(Cl)cc3)CS2)cc1	7
93	O=Cc1sc(N2CCOCC2)nc1-c1ccccc1	10
94	O=C(N/N=C/c1cn(-c2ccccc2)nc1-c1cccnc1)c1ccc(F)cc1	8
95	Fc1ccc(/C=N/Nc2nn[nH]n2)cc1	11
96	COc1ccc(NS(=O)(=O)c2cccc(NC(=O)C34CCC(CC3)C4)c2)cc1	25
97	CC(C)=CC(=O)N1CCC(N2CCC(C(=O)N3CCOCC3)CC2)CC1	17
98	CC(=O)c1c(-c2ccc(C)cc2)nc2c3ccccc3ccn12	8
99	CC(=O)NC(c1ccc([N+](=O)[O-])cc1)c1c(O)ccc2ccccc12 (centres undefined)	15
100	C=C/C(C)=C/CC1C(=C)CCC2C(C)(C(=O)O)CCCC12C (centres undefined)	24

Brought forward from above: six compounds, followed by the next part.
entry | Molecule | Biofilm kill mix
95 | Fc1ccc(/C=N/Nc2nn[nH]n2)cc1 | 11
96 | COc1ccc(NS(=O)(=O)c2cccc(NC(=O)C34CCC(CC3)C4)c2)cc1 | 25
97 | CC(C)=CC(=O)N1CCC(N2CCC(C(=O)N3CCOCC3)CC2)CC1 | 17
98 | CC(=O)c1c(-c2ccc(C)cc2)nc2c3ccccc3ccn12 | 8
99 | CC(=O)NC(c1ccc([N+](=O)[O-])cc1)c1c(O)ccc2ccccc12 (centres undefined) | 15
100 | C=C/C(C)=C/CC1C(=C)CCC2C(C)(C(=O)O)CCCC12C (centres undefined) | 24
101 | CC1Cc2ccccc2N1C(=O)CO/N=C/c1ccccc1OC(F)F (centres undefined) | 15
102 | O=C(NNS(=O)(=O)c1ccc2ccccc2c1)NC1CCCCC1 | 18
103 | O=C(CN1CCCC1)Nc1ccccc1C(=O)c1ccccc1 | -5
104 | CC(C)Sc1nnc(CNC(=O)C23CC4CC(CC(C4)C2)C3)n1Cc1ccccc1 | 5
105 | COc1ccc(N2C(=O)c3ccc(C(=O)OC(C)C)cc3C2=O)cc1 | 6
106 | Clc1ccc(C[n+]2csc3ccccc32)cc1 | 21
107 | CCOC(=O)C1(Cc2cccc(OC)c2)CCN(Cc2ccc(C)s2)CC1 | 14
108 | O=C(CCCN1C(=O)c2ccccc2C1=O)Nc1ccc2c(c1)OCCO2 | 15
109 | CCn1c(NCc2ccccc2Cl)nc2ccccc21 | 15
110 | CCC(=O)Oc1ccc(/C(CC)=C(\CC)c2ccc(OC(=O)CC)cc2)cc1 | 7
111 | Cc1[nH]n(-c2cccc3ccccc23)c(=O)c1/C=N/NC(=O)c1cccc([N+](=O)[O-])c1 | 15
112 | C/C(=N/NC(=O)c1ccccn1)c1ccc(O)cc1 | 7
113 | O=C(CCc1nc2ccccc2s1)NCc1ccccc1F | 22
114 | O=C(c1cnn2c(C(F)(F)F)cc(-c3cccs3)nc12)N1CCN(C(c2ccccc2)c2ccccc2)CC1 | -8
115 | O=C(O)CN1C(=O)NC2(CCOc3ccccc32)C1=O (centres undefined) | 17
116 | C#CCNC(=O)C1=C[C@@H](c2ccc(C#C)cc2)[C@H](CCCO)[C@@H](OCC)O1 | 18
117 | CC1=Nc2ccccc2/C1=C/c1c(N)n2c(S(=O)(=O)C(C)C)nsc2nc1=O | -4
118 | Cc1ccc2c(CN3CCN(C(=O)c4ccco4)CC3)cc(=O)oc2c1C | 8
119 | O=[N+]([O-])c1ccc(O)c(Nc2ncnc3ccc(Br)cc23)c1 | 22
120 | FC(F)(F)c1cc(-c2ccccc2)nc(-n2cc(Cl)cn2)n1 | 0
121 | COc1ccc2[nH]c(=O)c(CNc3ccccc3OC)cc2c1 | 3
122 | O=c1oc(-c2ccccc2F)nc2scc(-c3ccccc3)c12 | -1
123 | CCCCC1=CC2=C(c3ccco3)C(=O)C(C)(OC(=O)c3ccc(OC)cc3)C(=O)C2=CN1CCc1ccccn1 (centres undefined) | 12
124 | O=C(Nc1cccc(C(F)(F)F)c1)c1csc(-c2ccncc2)n1 | -2
125 | Cc1sc(-c2cccnc2)nc1OC(=O)C1CC1 | 12
126 | CCc1cc2ccc(C)cc2nc1SCC(=O)Nc1cc(C)on1 | 26
127 | CN(C)/C=C1\N=C(c2ccccc2)OC1=O | 10
128 | COc1ccc(-n2c(C)cc(/C=C/c3nc(O)c([N+](=O)[O-])c(=O)[nH]3)c2C)cc1 | 6
129 | CC(Oc1ccc(Cl)cc1)/C(N)=N/O (centres undefined) | 10
130 | COc1ccc(CNc2nc3ccccc3n2Cc2ccc(Cl)cc2)cc1OC | 13
131 | CCS(=O)(=O)n1nc(-c2ccco2)nc1N | 15
132 | CC(=O)NS(=O)(=O)c1ccc(NC(=O)CSc2ccccc2)cc1 | 16
133 | O=C(CO/N=C/c1cccc([N+](=O)[O-])c1)NC1CCCCCC1 | 14
134 | CCCS(=O)(=O)c1c(S(=O)(=O)CCC)c2c(C(N)=O)cccn2c1C(=O)c1ccc(F)cc1 | 11
135 | CNC(=O)/C(C#N)=C/c1ccc(-c2nc3ccccc3s2)o1 | 16
136 | CC(=O)Nc1ccc(OCCC[n+]2ccccc2)cc1 | 14
